Screening data as filed in PubChem BioAssay.
YopH inh – blocks Yersinia enterocolitica YopH tyrosine phosphatase; fluorescence Ex485/Em525; inhibition, %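 (about 10 µM by stock and volumes)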; actives 0.16% (n = 140,000); AID 898;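 active means inhibition of 50% or more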;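 further: controls were vehicle for no effect and minimum signal wells for full effect; inactives centre near -20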
Mtb growth – M. tuberculosis H37Rv growth inhibitors, H37Rv strain (AID 1626). M. tuberculosis H37Rv growth inhibition; higher % means a stronger effect. one-dose inhibition, % at 10 µM; IC50 in µM for titrated hits. actives 0.95% (n = 220,000);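 active means confirmed in a dose series; inconclusive means inhibition above 80% but not taken into the dose series; inactive means below 80% or under 30% at every dose of the series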;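 further: bacteria incubated seven days before Alamar blue readout; 0% = bacteria only wells and 100% = bacteria with antibiotic wells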
Arbovirus inh – antivirals against arbovirus infection. arbovirus infection cell-based antiviral screen. inhibition, % at 10 µM. actives 0.37% (n = 200,000). AID 1251;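 active means inhibition from about 30%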;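 further: bluetongue infection of BSR cells; cell survival read as ATP light after 72 h; 0% = infected wells without compound and 100% = uninfected wells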
Mtb betalactam – beta-lactam sensitization of Mtb H37Rv. AID 434955. actives 0.27% (n = 330,000). inhibition, % at 25 µM. M. tuberculosis H37Rv growth with meropenem, percent inhibition; hits of this screen are not shown here;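 active means about 74% or more and at least 40 points above the plate without the antibiotic, then above 30% in a dose series; inconclusive means first-round hits that could not be retested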;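 further: growth measured after seven days incubation then overnight dye step; 0% = bacteria only wells and 100% = bacteria with antibiotic; twin plates without the antibiotic show which effects depend on it; some results filed as inactive read as strong as hits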
RecA intein inh – Mtb RecA intein splicing inhibition. cell-free RecA intein splicing, fluorescence. inhibition, %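 (about 9 µM by stock and volumes)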. actives 0.75% (n = 290,000); in the data active means inhibition above about 30%; inconclusive means no clear call, values can overlap the other calls;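 further: 0% = vehicle wells and 100% = reference inhibitor control wells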
Target sequence (P9WHJ3 whole entry, looked up): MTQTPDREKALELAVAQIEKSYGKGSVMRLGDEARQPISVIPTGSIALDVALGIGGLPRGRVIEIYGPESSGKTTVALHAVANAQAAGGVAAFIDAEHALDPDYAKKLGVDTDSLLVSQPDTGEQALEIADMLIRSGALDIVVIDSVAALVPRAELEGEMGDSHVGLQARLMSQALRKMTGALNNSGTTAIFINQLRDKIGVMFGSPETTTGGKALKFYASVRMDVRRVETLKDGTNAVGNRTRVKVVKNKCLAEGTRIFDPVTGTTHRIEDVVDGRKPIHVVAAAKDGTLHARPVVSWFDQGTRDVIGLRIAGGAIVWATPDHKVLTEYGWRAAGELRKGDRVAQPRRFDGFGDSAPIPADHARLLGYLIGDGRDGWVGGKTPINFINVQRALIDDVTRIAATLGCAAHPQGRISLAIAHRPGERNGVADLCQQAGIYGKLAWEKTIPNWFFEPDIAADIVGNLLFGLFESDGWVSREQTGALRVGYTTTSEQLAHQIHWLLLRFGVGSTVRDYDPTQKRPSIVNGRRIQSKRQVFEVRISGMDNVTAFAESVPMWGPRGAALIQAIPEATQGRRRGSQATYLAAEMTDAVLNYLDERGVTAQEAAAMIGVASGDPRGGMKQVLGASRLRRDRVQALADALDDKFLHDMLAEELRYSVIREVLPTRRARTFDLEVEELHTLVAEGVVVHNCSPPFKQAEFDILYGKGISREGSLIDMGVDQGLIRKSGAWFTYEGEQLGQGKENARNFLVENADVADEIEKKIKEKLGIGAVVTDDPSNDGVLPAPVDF
Arbovirus inh repeat – recorded beside Arbovirus inh, whose call it bears; inhibition, %; measured here: 10K subset replicate screen; many hits read low in the repeat;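 first of two repeat runs on a subset; 0% = infected and 100% = uninfected wells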
* hit, by the source's call; u = inconclusive; x = not tested or not shown. An excerpt; count on the stated rates, not on these rows.

SMILES	YopH inh	Mtb growth	Arbovirus inh	Mtb betalactam	RecA intein inh	others
CCOc1ccccc1C(=O)Nc1cccc(-c2nnc(-c3ccccc3)o2)c1	-17.9	-3.2%	-9.1	1.8	1.3
Cc1c(NC(=O)c2cccnc2Cl)c(=O)n(-c2ccccc2)n1C	x	x	x	6.3	-0.7
CC(C)[C@@H](C(=O)NCC1CCC(C(=O)O)CC1)n1nnc2ccccc2c1=O (some centres not stated)	-23.3	-11.3%	2.4	-1.5	x
CCc1cccc(CC)c1NC(=S)NCCc1c(C)[nH]c2ccccc12	-35.3	x	-34.6	4.0	13.3
Cc1cc(-c2csc(NC(=O)c3cccc(S(=O)(=O)N(C)C)c3)n2)c(C)n1-c1ccccc1	-19.0	-6.3%	-3.0	2.9	1.4
COc1cc(C(=O)Nc2ccccc2N2CCCCC2)cc(OC)c1OC	x	x	x	45.5	-1.9
Cc1nc2ccccc2c(=O)n1NC(=O)C1CC1	x	-21.5%	3.0	2.1	-2.1
COc1ccc(-n2nc(C(=O)NCc3ccco3)c3c4ccccc4n(C)c3c2=O)cc1Cl	-23.0	-8.1%	0.1	8.1	-1.1
COc1ccc(CCC(=O)NC2CCCCC2)cc1	x	x	x	-9.0	-0.1
COc1ccc(Oc2nc(Oc3ccc(OC)cc3)nc(Oc3ccc(OC)cc3)n2)cc1	-105.1	-0.8%	9.3	-1.4	-0.2
COc1ccc(OC)c(NC(=O)c2nnn(Cc3ccc(Br)cc3F)c2N)c1	-28.7	17.1%	-15.8	1.2	1.9	Arbovirus inh repeat=-16.0
CCCCOc1cccc(C(=O)N(Cc2ccccc2)C2CCS(=O)(=O)C2)c1 (configuration not stated)	x	x	x	-5.0	1.8
COC(=O)N/N=C/c1ccc(OC(=O)c2ccco2)c(OC)c1	x	4.0%	x	15.4	27.8
O=C(Nc1ccc(Cl)cc1)c1cccc(OC(=S)N2CCOCC2)c1	x	x	x	7.7	-0.4
CCCn1nnnc1COc1ccc(C(N)=O)cc1	x	x	x	-0.8	-1.3
c1ccc(Cn2ccnc2)cc1	-60.4	7.2%	4.7	-2.6	-1.8
O=C(Nc1cc(C(F)(F)F)ccc1F)C1CCCC1	-12.4	-9.1%	-2.9	-5.5	-0.3
C=CCn1c(=N)n(CC(O)c2ccco2)c2ccccc21 (configuration not stated)	5.8	-13.0%	-3.4	-0.7	-0.9
Cc1ccc(NC(=O)Nc2ccc3c(c2)C(=O)OC3)cc1Cl	x	0.8%	x	-0.8	-3.7
O=C(CCN1C(=O)c2cccc3cccc(c23)C1=O)N1CCN(Cc2ccc3c(c2)OCO3)CC1	-20.1	-3.2%	-4.1	-12.2	0.5
O=C(CSc1nnc(-c2ccc(F)cc2)o1)N1CCN(C(=O)c2ccco2)CC1	-34.2	23.1%	0.7	-2.5	0.8
Nc1ccc(C(=O)OCC(=O)N2CCOCC2)cc1[N+](=O)[O-]	-32.5	2.0%	-1.2	-1.4	10.8
CCc1c(C2(O)CCCCC2)[nH]c2ccc(C(=O)OC)cc12	x	0.5%	x	2.5	2.8
O=C(N/N=C/c1cn[nH]c1-c1ccc(F)cc1)c1ccncc1	-22.4	u	-0.1	98.5	-0.9
Cc1ccc(C(=O)NCCNC(=O)COc2ccccc2Cl)cn1	x	x	x	-5.9	1.4

Next part.
SMILES	YopH inh	Mtb growth	Arbovirus inh	Mtb betalactam	RecA intein inh	others
COc1cccc(CC2(CO)CCCN(Cc3c(C)cc(C)cc3-n3cccn3)C2)c1 (configuration not stated)	x	5.0%	-20.0	7.2	0.3
CCOC(=O)c1ccc(OCC(=O)c2ccc(O)cc2O)cc1	-26.0	6.7%	3.9	3.3	1.7
COC(=O)C1=C(c2cc3ccccc3s2)C[C@@H]2CC[C@H]1N2C(=O)NC1CCCCC1	x	18.4%	x	6.3	13.1
O=[N+]([O-])c1cc([N+](=O)[O-])c(Oc2cccc(Cl)c2Cl)cc1NN1CCCCC1	x	x	x	16.2	0.9
CCCN1CCC(N2CCN(c3ccc([N+](=O)[O-])cc3)CC2)CC1	x	x	x	-3.2	1.5
O=S(=O)([O-])CCC[n+]1ccc(Oc2ccccc2)cc1	x	x	x	11.4	2.1
CC(C)c1ccc(S(=O)(=O)N2CCN(C(=O)c3cc(-c4ccccc4)n[nH]3)CC2)cc1	x	x	x	1.8	1.3
Cc1cc(/C=N/NC(=O)c2cccc(F)c2)c(C)n1-c1ccccc1	x	-4.2%	4.3	71.9	0.8
Cc1[nH]c2ccccc2c1C(=O)COC(=O)C1CCC(=O)N1 (configuration not stated)	-43.3	-5.5%	8.9	34.0	1.6
Cn1cnnc1Sc1nc2ccccc2nc1NS(=O)(=O)c1ccccc1	-16.2	12.8%	1.0	-2.3	-8.0
O=C(NCc1n[nH]c(=S)n1-c1cccc(Cl)c1)c1cccs1	x	6.2%	1.8	-4.3	-2.8
C=CCNC(=S)N/N=C/c1cccc([N+](=O)[O-])c1	x	-0.9%	0.3	-2.7	-6.2
NC(=O)CSc1nc2c(sc(=S)n2-c2ccccc2)c(=O)[nH]1	x	x	x	2.6	-6.1
CC(C)Oc1cccc(C(=O)NC(=S)Nc2ccccc2N2CCOCC2)c1	x	x	x	7.7	-1.9
CCOC(=O)C1(CCOc2ccccc2)CCN(Cc2ccc(O)c(OCC)c2)CC1	x	x	x	-2.1	-1.0
Cc1cc(C)c(C#N)c(Nc2ccccc2F)n1	x	x	x	3.0	2.4
COc1ccc(C(=O)NCC(=O)OCC(=O)NCc2cccs2)cc1	x	-8.6%	14.6	5.9	3.0
Cn1cccc1C1C=C(c2ccc(C(C)(C)C)cc2)Nc2ncnn21 (configuration not stated)	x	-2.1%	x	55.8	14.6
O=C(CN1C(=O)CCC1=O)Nc1nc(-c2ccc(Cl)s2)cs1	-30.5	-4.5%	5.4	0.7	3.6
O=C(Cn1nc(CNc2ccc(Br)cc2)[n+]2c1CCCCC2)c1ccc([N+](=O)[O-])cc1	x	28.2%	x	37.0	0.0
CCO[C@@H]1OC(C(=O)NC2CC2)=C[C@H](C2CCCCC2)[C@H]1CCCO	x	-7.5%	x	-5.5	1.0
COC(c1ccccc1)c1nnc(CCC(=O)N2CCN(Cc3cccs3)CC2)o1 (configuration not stated)	x	-2.2%	9.0	-1.0	0.6
Cc1ccc(N2CCN(CCc3nc4cc(NC(=O)c5ccco5)ccc4n3C)CC2)cc1	-27.0	-10.7%	0.2	13.1	0.1
CC(OC(=O)CN(C)S(=O)(=O)c1ccc(Cl)cc1)C(=O)Nc1cccc(Cl)c1 (configuration not stated)	-14.9	-11.4%	-1.2	7.2	4.6
CCC(CO)NCc1ccc(Br)cc1 (configuration not stated)	x	2.1%	2.7	4.2	-1.6

(further entries)
SMILES	YopH inh	Mtb growth	Arbovirus inh	Mtb betalactam	RecA intein inh	others
CC(=O)Nc1ccc(NC(=O)Cn2ccc([N+](=O)[O-])n2)cc1	x	-8.6%	-6.2	-5.4	-1.2
CCOC(=O)c1c(C)c(C(=O)NCCc2ccccc2)c(C)n1C	x	0.8%	18.3	4.2	1.5
COc1ccc(-c2ccc(OC)c([C@H]3[C@H]4C=CC[C@@H](C)[C@@H]4C(=O)N3Cc3ccccc3)c2)cc1OC	x	7.2%	x	36.1	1.2
Cc1nc2cc3ccccc3cc2n1C	-2.5	-1.3%	-4.8	0.2	-3.8
Cc1cccc(NC(=S)NCC(c2cccnc2)N(C)C)c1C (configuration not stated)	-16.8	-1.4%	-3.8	6.0	-4.8
CCN(CC)c1ccc(C=Nc2ccccc2C)c(O)c1	20.0	4.4%	-16.6	-3.5	0.1
COc1ccc(-c2cc(-c3cc(C)ccc3O)[nH]n2)cc1	x	2.5%	-40.9	79.2	1.4
Cc1cc(C(=O)CSc2nnc(Nc3ccccc3F)s2)c(C)n1CC1CCCO1 (configuration not stated)	-31.1	-4.0%	21.3	x	4.4
COc1cccc(CNCc2ccccn2)c1OC	-43.2	-2.9%	4.6	8.6	-2.6
CCOC(=O)N1CCN(C(=O)c2ccc3c(c2)N(Cc2ccccc2)CCS3)CC1	x	x	x	1.4	5.9
Cc1nc(Sc2ccc(Br)cc2)c(C#N)c(C)c1[N+](=O)[O-]	x	11.8%	x	27.9	x
CC(C)CCNC(=O)CN(Cc1ccc(F)cc1)C(=O)CCC(=O)Nc1ccccn1	x	x	x	0.1	-0.6
CC(c1ccccc1)n1cc(C(=O)NCCCn2ccnc2)nn1 (configuration not stated)	-15.8	2.0%	-8.6	-11.2	-1.8
CCOC(=O)C1(Cc2cccc(F)c2)CCN(CCCn2cccn2)CC1	x	-11.1%	x	-10.7	0.9
CC(C(=O)NCCC1=CCCCC1)N1C(=O)c2ccccc2C1=O (configuration not stated)	-58.2	1.3%	3.0	14.0	-4.0
O=C(N/N=C/c1ccc([N+](=O)[O-])cc1)c1cc(C2CC2)nc2ccccc12	x	11.0%	x	0.1	1.9
COc1ccc(NC(=O)NNC(=O)C(C)Oc2ccc3ccccc3c2)cc1OC (configuration not stated)	x	x	x	-4.6	0.9
Cc1nn(-c2ccccc2)c2c1C(c1ccc(Br)s1)C(C#N)=C(N)O2 (configuration not stated)	x	7.6%	-12.8	x	x
CCCN(C(=O)C1CSC2(C)CCC(=O)N12)c1c(N)n(Cc2ccccc2)c(=O)[nH]c1=O (configuration not stated)	x	x	x	-2.6	1.6
COc1cc(C)ccc1OCCOCCOc1cc(C)c(C)cc1Br	-21.9	16.7%	20.7	16.0	8.1
CCN1CCN(Cc2ccc(NC(=O)c3cc(NC(=O)c4cncc(-c5cccs5)c4)cc(OC)c3)cc2C(F)(F)F)CC1	x	x	x	99.6	22.2
Cc1noc(C)c1CSc1nc2cc(S(=O)(=O)N3CCOCC3)ccc2o1	7.2	7.0%	-6.8	43.5	0.6
Cc1ccccc1OCC(=O)Nc1cc(S(=O)(=O)N2CCCCC2)ccc1N1CCN(C)CC1	x	1.1%	1.1	-9.7	x
Cn1cccc1CC(=O)N/N=C/c1ccc(C(C)(C)C)cc1	x	2.0%	x	-8.0	8.6
Cc1ccc(S(=O)(=O)NCc2ccc(C(=O)N3CCc4ccccc4C3)cc2)cc1	-8.7	3.8%	-12.8	0.6	3.3

By substructure, the entries above containing two or more sulfur atoms.
SMILES	YopH inh	Mtb growth	Arbovirus inh	Mtb betalactam	RecA intein inh	others
Cc1cc(-c2csc(NC(=O)c3cccc(S(=O)(=O)N(C)C)c3)n2)c(C)n1-c1ccccc1	-19.0	-6.3%	-3.0	2.9	1.4
Cn1cnnc1Sc1nc2ccccc2nc1NS(=O)(=O)c1ccccc1	-16.2	12.8%	1.0	-2.3	-8.0
O=C(NCc1n[nH]c(=S)n1-c1cccc(Cl)c1)c1cccs1	x	6.2%	1.8	-4.3	-2.8
NC(=O)CSc1nc2c(sc(=S)n2-c2ccccc2)c(=O)[nH]1	x	x	x	2.6	-6.1
O=C(CN1C(=O)CCC1=O)Nc1nc(-c2ccc(Cl)s2)cs1	-30.5	-4.5%	5.4	0.7	3.6
Cc1cc(C(=O)CSc2nnc(Nc3ccccc3F)s2)c(C)n1CC1CCCO1 (configuration not stated)	-31.1	-4.0%	21.3	x	4.4
Cc1noc(C)c1CSc1nc2cc(S(=O)(=O)N3CCOCC3)ccc2o1	7.2	7.0%	-6.8	43.5	0.6

(list continues)
SMILES	YopH inh	Mtb growth	Arbovirus inh	Mtb betalactam	RecA intein inh	others
O=C(CS(=O)CC(=O)Nc1cccc2c1CCCC2)Nc1ccc(F)cc1 (configuration not stated)	-15.8	-6.5%	1.2	-8.8	0.5
O=C1NN(c2ccccc2)C(=O)/C1=C/c1ccc(-c2ccc(Cl)c(C(=O)O)c2)o1	x	-4.3%	-25.3	x	-5.0
O=C(Cn1cncn1)NCc1ccccc1Br	-31.8	-7.3%	0.2	0.4	-1.4
COc1cccc(N2CCN(C(=O)c3cc(-c4ccc(F)cc4)[nH]c3C)CC2)c1	x	x	x	50.6	4.7
Cc1ccccc1NC(=O)CN(C)S(=O)(=O)c1cccc2cccnc12	-43.7	-5.8%	-1.3	-0.2	x	Arbovirus inh repeat=3.3
COc1cc(C)c(CN2CCC(n3nccc3NC(=O)C3CCOC3)CC2)cc1C (configuration not stated)	x	x	x	-8.0	2.0
O=C(NCc1cccnc1)c1cccc(Cl)c1	-30.1	3.0%	-3.8	-3.0	-2.1
CN(C)CC(=O)N1c2ccccc2Sc2ccc(Cl)cc21	x	-7.2%	1.0	9.2	0.6
CC(C)C(C(=O)NCc1ccco1)N(C(=O)CNS(=O)(=O)c1ccc(Cl)cc1)C1CCCC1 (configuration not stated)	0.3	-0.5%	-18.0	-1.0	4.6
COc1ccccc1N1CCN(S(=O)(=O)CCNC(=O)Cc2ccc(F)cc2)CC1	x	x	x	-0.6	-0.3
CCOc1ccccc1N(C)C(=O)CCS(=O)(=O)c1ccc2c(c1)NC(=O)C(C)S2 (configuration not stated)	x	x	x	2.9	1.0
